# Screening results (PubChem)
# Ab BasE inh – inhibitors of Acinetobacter baumannii siderophore enzyme BasE; purified BasE, fluorescence polarization binding displacement; inhibition, % (no concentration beside the values); actives 0.1% (n = 84,000);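 active = both replicates above 25% with normal brightness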;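 note: 0% = negative plate control signal and 100% = positive plate control signal; stock transfer was 100 nL into about 30 µL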
# LANA-nucl inh – inhibitors of KSHV LANA binding to nucleosomes; FITC-LANA1-23 / chicken nucleosome fluorescence polarization; hits give low values; z-score (no concentration beside the values); actives 0.3% (n = 51,000);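 active = both repeat wells score below -2 in polarization z-score versus plate sample wells, excluding overly bright wells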;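 note: 100 nL library stock added to about 30 µL; numbers are from one replicate; some results filed as inactive read as strong as hits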
#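 Material: Purified chicken nucleosomes with FITC-labelled LANA N-terminal peptide (1-23) | Reagent: 50 nM FITC-LANA1-23 probe | Medium: TEN-BT buffer, pH 7.5 | Times: 10–45 min incubation at room temperature | Detection: Fluorescence polarization | Replication: Duplicates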
# An asterisk follows results filed as active; / = no result given; & = joins results of further samples. An excerpt; the hit share may differ from the screen's.
SMILES,Ab BasE inh,LANA-nucl inh
O=C(NNc1nc2c(F)cccc2s1)c1ccc(S(=O)(=O)N2CCCC2)cc1,0.5,-1.07
Clc1ccc(CN2CCC(Cc3ccccc3)CC2)cn1,/,1.17
COc1cc(OC)c(OC)cc1/C=C/C(=O)N1CCN(C)CC1,0.0,/
O=C(NCc1n[nH]c(=O)c2ccccc12)c1ccco1,0.0,0.345
Cc1cc(C)c(C#N)c(SCC(=O)n2nc(C)cc2C)n1,-1.4,0.474
O=C(NCC(c1ccco1)N1CCc2ccccc2C1)c1ccccc1 (stereo not given),3.5,-1.02
COC(=O)c1ccsc1NC(=O)c1cccs1,-0.1,-0.543
CCOC(=O)NC(=S)c1cccn1C,3.5,/
CCOC(=O)c1c(-c2cccs2)csc1NC(=O)CN1CCC(C)CC1,1.5,-1.57
Cc1ccc(N2CC(O)=C(c3nc4ccccc4s3)C2=N)c(C)c1,-1.0,0.039
COc1ccc(Cl)c(N=C2NC(=O)/C(=C\c3cccnc3)S2)c1,2.4,/
COc1ccc(CNC(=O)COC(=O)C2CC3C=CC2C3)cc1 (stereo not given),-1.4,/
CC(NCc1ccc2c(c1)OCO2)C(=O)Nc1cc(Cl)cc(Cl)c1 (stereo not given),0.0,/
Cc1csc(SCC(=O)c2ccc(O)cc2O)n1,-4.3,/
CC(Oc1ccc2c(c1)OCO2)C(=O)c1ccc(OC(F)F)cc1 (stereo not given),1.2,/

# In the list so far, these have a Cl atom:
SMILES,Ab BasE inh,LANA-nucl inh
Clc1ccc(CN2CCC(Cc3ccccc3)CC2)cn1,/,1.17
COc1ccc(Cl)c(N=C2NC(=O)/C(=C\c3cccnc3)S2)c1,2.4,/
CC(NCc1ccc2c(c1)OCO2)C(=O)Nc1cc(Cl)cc(Cl)c1 (stereo not given),0.0,/

# (further entries)
SMILES,Ab BasE inh,LANA-nucl inh
COc1ccc(-c2noc(=O)n2Cc2ccccc2)cc1,-1.2,-0.269
O=C(O)CCCC(=O)N1CC(=O)Nc2ccccc21,-0.2,-0.23
COc1ccc(OCC(=O)Nc2ncccc2C)cc1,0.3,0.784
CCCn1c(=O)c2sccc2n2c(CCCC(=O)Nc3ccccc3)nnc12,-0.7,1.42
CN(Cc1ccc(Cl)s1)Cn1c(=O)oc2ccccc21,3.8,/
CC12CCC(=O)N1C(C(=O)O)Cc1c2[nH]c2ccccc12 (stereo not given),-0.1,/
O=C(Nc1ccccc1)n1nccc1-c1sccc1Cl,/,-1.18
O=C(NN1C(=O)CSC1=S)c1ccccc1,3.0,/
Cc1cc(=S)cc(C)n1CCCn1ccnc1,-1.0,/
Cc1cc(N2CCN(C)CC2)nc2ccc(NC(=O)NCc3ccc(F)cc3)cc12,-4.6,/
C/C(=N\NS(C)(=O)=O)c1ccc(Br)cc1,0.2,0.93
CCOC(=O)c1cc(C#N)c(SCC(=O)c2cc3ccccc3oc2=O)[nH]c1=O,21.8,/
CC1CC(=O)C2=C(C1)Nc1ncnn1C2c1cc(F)cc(F)c1 (stereo not given),2.0,0.295
CCOC(=O)c1sc2nc(C)cc(C)c2c1NC(=O)Nc1ccc(Cl)cc1,-4.6,/
O=C(O)C1CC=CCC1C(=O)N1CCN(C/C=C/c2ccccc2)CC1 (stereo not given),2.1,/

# Among those listed so far, these contain an NH in an aromatic ring.
SMILES,Ab BasE inh,LANA-nucl inh
O=C(NCc1n[nH]c(=O)c2ccccc12)c1ccco1,0.0,0.345
CC12CCC(=O)N1C(C(=O)O)Cc1c2[nH]c2ccccc12 (stereo not given),-0.1,/
CCOC(=O)c1cc(C#N)c(SCC(=O)c2cc3ccccc3oc2=O)[nH]c1=O,21.8,/

# Next structures follow:
SMILES,Ab BasE inh,LANA-nucl inh
Cn1c(O)c(C=Nc2cccc(CO)c2)c2ccccc21,1.4,/
CCOC(=O)c1cn(Cc2cccc(Cl)c2)c2cc(C)nn2c1=O,-2.1,/
Clc1cccc(Nc2nnc(-c3ccc(Br)cc3)o2)c1,1.4,/
COc1cc(NC(=O)CCN2CCOCC2)cc(OC)c1,-5.0,2.73
O=C(C/C(=C1/Cc2ccccc2C1=O)c1ccccc1)c1ccccc1,2.4,/
O=C(O)CC(=O)Oc1ccc(Cl)cc1,/,-0.427
CN(C)S(=O)(=O)c1ccc2c(c1)C(=C(C#N)C#N)c1cc(S(=O)(=O)N(C)C)ccc1-2,-0.6,-0.925
Cc1ccc(-c2c(C#N)c(SCC(=O)c3cc4ccccc4oc3=O)nc(C)c2C(=O)Nc2ccccc2C)o1,1.6,/
Cc1ccc(N2CCN(CC(=O)Nc3c(C(=O)C4CC4)oc4ccccc34)CC2)cc1,6.0,0.194
COc1cccc(NC(=O)c2ccccc2S(C)(=O)=O)c1,3.3,/
Cc1ccc(-n2ncc3c(NNC(=O)c4ccco4)ncnc32)c(C)c1,0.3,-1.11
CCC(=O)N(c1nnc(SCC(=O)N2CCC(c3ccccc3)=N2)s1)C1CC1,2.2,/
CCCCCOc1ccc(C2N=C(N)Nc3nc4ccccc4n32)cc1 (stereo not given),-1.3,/
CCCN1C(=O)S/C(=C\C(=O)O)C1=O,0.6,-0.343
NC(=O)COC(=O)c1ccc2c(c1)C(=O)N(Cc1ccco1)C2=O,3.2,/
Cc1c(NC(=S)NCCCN2CCOCC2)c(=O)n(-c2ccccc2)n1C,-1.2,-1.62
CCCCn1c(N)c(N2CCOCC2)c(=O)n(CC(=O)NCCc2ccccc2)c1=O,-4.0,/
N#CCC(=O)Nc1cccc(Cl)c1Cl,-20.9,/
O=C(CN1CCN(S(=O)(=O)/C=C/c2ccccc2)CC1)NC1CCCc2ccccc21 (stereo not given),2.7,/
Cc1ccccc1Nc1nc(N)nc(COC(=O)COc2ccc(C#N)cc2)n1,0.0,/
CC(=O)Nc1c(C(=O)N2CCCCCC2)cnn1-c1ccccc1,3.9,-0.522
CC(C)c1ccc(NC(=O)C2CC(=O)NC(N3CCN(c4ccccn4)CC3)=N2)cc1 (stereo not given),0.9,-1.07
Nc1c(-c2ccccc2)c(CN2CCOCC2)nn1-c1ccc(F)cc1,-1.0,-0.21
CNC(=O)COc1coc(CN2c3ccccc3CC2C)cc1=O (stereo not given),-0.7,1.07
N#CSCC(=O)C12CC3CC(CC(C3)C1)C2,1.4,/
CN(C1CCCCC1)S(=O)(=O)c1ccc(S(=O)(=O)N(Cc2cccs2)CC2CCCO2)cc1 (stereo not given),2.0,0.564
CCOC(=O)c1cccnc1SC(CC)C(=O)NCc1ccco1 (stereo not given),0.1,-1.15
CCN(CC)c1ccc(NC(=O)C2(c3ccccc3)CC2)cc1,4.1,/
Cc1cc(C(=O)OCc2cc(Cl)cc3c2OCOC3)c2ccccc2n1,0.9,/
COc1ccccc1C(=O)NC(=O)CSc1cccc[n+]1[O-],-0.6,/

# Three compounds out of the list above, arranged by the value under LANA-nucl inh, highest first:
Molecule	LANA-nucl inh
CN(C1CCCCC1)S(=O)(=O)c1ccc(S(=O)(=O)N(Cc2cccs2)CC2CCCO2)cc1 (stereo not given)	0.564
CC(C)c1ccc(NC(=O)C2CC(=O)NC(N3CCN(c4ccccn4)CC3)=N2)cc1 (stereo not given)	-1.07
CCOC(=O)c1cccnc1SC(CC)C(=O)NCc1ccco1 (stereo not given)	-1.15

# Next part:
SMILES,Ab BasE inh,LANA-nucl inh
O=c1c2c3c(sc2nc(NCCO)n1-c1ccccc1)CCCC3,-1.3,0.117
Cc1ccc(S(=O)(=O)CCC(=O)OCc2cccc(S(=O)(=O)N3CCOCC3)c2)cc1,2.9,/
COc1cccc(NC(=O)N(Cc2ccc(C)cc2)Cc2cccn2-c2nnc(N3CCCC3=O)s2)c1,-1.4,-0.387
Clc1nc2ccccc2c(N2CCCCC2)c1CNCc1ccco1,-0.4,0.358
COc1cccc(NC(=O)c2ccccc2N(C)C(=O)CCC(=O)N2CCC(C)CC2)c1,1.2,/
COc1ccc(C(=O)n2nc(C)cc2Nc2ccccc2)cc1,1.9,/
COc1cccc(CC(C#N)c2c(C#N)c(N)nc(N3CCOCC3)c2C#N)c1 (stereo not given),0.7,/
CCCN(CC(=O)N1CCc2ccccc21)S(=O)(=O)c1cccc(C(F)(F)F)c1,-3.4,/
CCC(C)Sc1nc2ccccc2[nH]1 (stereo not given),-3.0,/
Cc1cc(C(=O)Cn2cnc3sccc3c2=O)c(C)n1CC1COc2ccccc2O1 (stereo not given),-8.7,/
O=C(Cc1ccccc1F)Nc1cc2c(cc1Br)OCCO2,0.7,/
CN1C(=O)C(S(=O)(=O)c2ccccc2)C2CC1(C)Oc1ccccc12 (stereo not given),1.8,-0.0125
CCOC(=O)c1cc(C(O)(C(F)(F)F)C(F)(F)F)c(/N=C/N(C)C)o1,0.5,/
CCS(=O)(=O)N1CCc2cc(C(=O)COC(=O)c3ccc(-n4cnnn4)cc3)ccc21,-0.2,/
CCNC(=S)N1CCn2cccc2C1c1cccs1 (stereo not given),0.9,-0.258

# Record cards (already shown). Order of screens: Ab BasE inh	LANA-nucl inh
# CCC(C)Sc1nc2ccccc2[nH]1 (stereo not given) is listed with -3.0	/
# CCOC(=O)c1cc(C(O)(C(F)(F)F)C(F)(F)F)c(/N=C/N(C)C)o1 is listed with 0.5	/

# (more compounds)
SMILES,Ab BasE inh,LANA-nucl inh
Cc1c(N=C2SCC(=O)N2c2c(C)n(C)n(-c3ccccc3)c2=O)c(=O)n(-c2ccccc2)n1C,-0.5,-0.0665
Clc1cc(Cl)cc(-c2nnc(N3CCCC3)o2)c1,1.4,/
O=C(CC1=NS(=O)(=O)c2ccccc2N1)N1CCN(c2ccccc2)CC1,1.2,-1.4
CC(=O)N1C=CN(C(C)=O)C(c2cn(C)c3ccccc23)C1c1cn(C)c2ccccc12 (stereo not given),1.0,0.439
O=S(=O)(NC1CC1)c1ccc2c(c1)OCCO2,1.2,/
Cc1ccc(C2=NN(C(=O)CCC(=O)O)C(c3cn(-c4ccccc4)nc3-c3ccc(C)cc3)C2)cc1 (stereo not given),3.2,/
O=C(CN1CCCCCC1)NCc1ccccc1,1.3,-0.0415
CCOC(=O)c1oc2ccccc2c1CSc1nnc(Cc2cccs2)n1CCc1ccccc1,1.5,/
CC(O)Cn1cnc2c1c(=O)n(C)c(=O)n2C (stereo not given),-0.6,0.302
Cc1c(C(=O)OC(C)C(=O)N(C)Cc2ccccc2)oc2ccccc12 (stereo not given),0.1,/
N#C/C(=C(/O)Cn1nc(C(=O)O)c2ccccc2c1=O)c1nc2ccccc2s1,3.9,/
O=C1NC2(CCN(C(=O)Nc3ccccc3)CC2)Oc2ccccc21,-2.6,2.25
c1nc(N2CCC2)c2ccsc2n1,1.6,/
O=C1NS(=O)(=O)c2ccccc21,-0.2,-0.123&0.403
NS(=O)(=O)c1ccc(C(=O)Nc2ccc(-c3cn4c(n3)SCC4)cc2)cc1,3.0,0.206
Cc1ccc(-n2nnc(C(=O)NCC3CCCO3)c2N)c(C)c1 (stereo not given),1.9,-0.531
COc1cccc(C(=O)COC(=O)C(C)N2C(=O)C3C4C=CC(C4)C3C2=O)c1 (stereo not given),-0.6,-0.541
NC(=O)CC(=O)NC12CC3CC(CC(C3)C1)C2,2.0,0.544
C/C(=N\NC(=O)C1CC1)c1ccc(S(=O)(=O)N2CCCC2)cc1,-1.1,/
CC(=O)Nc1ccc(S(=O)(=O)n2c(N)c(C#N)c3nc4ccccc4nc32)cc1,0.9,/
Cn1c(=O)c2c(ncn2CC(=O)NC2CCSC2=O)n(C)c1=O (stereo not given),-0.5,-0.384
Nc1nc2ccc(Cl)cc2c2nc(-c3ccco3)nn12,/,0.187
CCCN(CCC)C(=O)C[n+]1cccc(/C=N/O)c1,-1.9,0.791
CCN(CC)Cc1cccn1-c1nnc(N2CCCCCC2)s1,-5.7,/
Nc1cc(=O)[nH]c(SCCSc2ccccc2)n1,0.5,-1.17
FC(F)(F)c1nnc2sc(-c3cnccn3)nn12,-0.9,0.004
COc1ccc(-c2nc3ncccc3o2)cc1NC(=O)C(C)Oc1ccc(Cl)cc1Cl (stereo not given),0.0,0.853
Cc1nc2ccccn2c1C(=O)NN=C1CCCC1,-1.6,/
CCOC(=O)c1sc(N2CCCCC2)c2c1CC(C)(C)CC2=O,1.4,/
CC(=O)N1N=C(N)SC12CCCC2,3.3,/
C=CCNC(=O)Cc1csc(-c2ccccc2)n1,-0.8,-0.366
Nc1nc2cc(S(=O)(=O)NC3=NCCCCC3)ccc2s1,0.6,/
C[n+]1ccc(/C=C/c2ccccc2O)c2ccccc21,0.6,/
Brc1ccccc1Cn1cnc2ccccc21,5.0,1.15
CC(=O)OC1CCN(c2ncc(C(F)(F)F)cc2Cl)CC1,/,-0.796
O=C1C2C3C=CC(C3)C2C(=O)N1C1CC2CCC1C2 (stereo not given),0.6,-0.407
CCOC(=O)c1oc2ccc(Br)cc2c1CSc1nnc(-c2ccc(OC)cc2)o1,2.3,/
NC(=O)CSc1nc2ccccc2c(=O)n1-c1cccc(Cl)c1,-3.1,/
Cc1cccc(N(C)Cc2nnc(-c3ccc4c(c3)OCO4)o2)c1,-0.5,-0.469
COc1ccc(OC)c(NC(=O)COC(=O)c2ccc(S(=O)(=O)N3CCOCC3)cc2)c1,0.0,/
CC(C(=O)Nc1cc(Cl)c(Cl)cc1Cl)N(C)C (stereo not given),-1.1,/
c1c2c(nc3c1CCCC3)CCCC2,-1.0,0.97
CCOC(=O)COc1ccc2c(c1)[nH]c1ccccc12,-2.8,/
C#CC(OC(=O)c1ccccc1C(=O)O)c1ccccc1 (stereo not given),-4.9,1.07
CCOC(=O)c1sc(S(C)(=O)=O)c2c1CC(C)(C)C/C2=N/O,4.4,/
N#Cc1ccc(-n2cccc2)nc1,/,0.202
